Ecoli growth: E. coli growth inhibition, primary screen, OD600 | AID 1053175, 2014 | OD600 absorbance (concentration not given with the values) | 330,000 compounds, 0.21% hits | Escherichia coli growth, 23 h; active compounds read low;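 active = OD600 absorbance below the run mean of sample wells minus 3.6 SD, in any replicate, cut at about 0.56 in these data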;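 also: stock transfer was 300 nL into about 60 µL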
RanGTP-Impb inh: inhibitors of RanGTP-importin-beta interaction, primary screen, biochemical, FRET, CFP-Ran, YFP-importin-beta, homogeneous. cell-free CFP-Ran/YFP-importin-beta FRET ratio. inhibition, % (no concentration beside the values). 300,000 compounds, 1.1% hits;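 active = most replicates above 15%; inconclusive = exactly half above 15%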;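 also: 0% = DMSO wells and 100% = Ran loaded with GDP instead of GTP; wells of about 40 µL received 100 nL stock; the first replicate is given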
HNF4A DNA FP: change in binding of human HNF4A to DNA, primary screen, biochemical, fluorescence polarization, FITC-DNA; Hepatocyte nuclear factor 4-alpha (Homo sapiens), P41235; 1 h; activity change, % at 10 µM; 360,000 compounds, 0.3% hits; in the data active = activity change above about 30%, passing the limit was not always enough;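 also: controls were the assay level and a saturating level of protein; the project sought stronger binding though the title names inhibitors; some compounds called inactive have numbers as strong as hits; positive values seem to mean higher polarization but the record does not say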
Target sequence (P41235 whole entry, looked up): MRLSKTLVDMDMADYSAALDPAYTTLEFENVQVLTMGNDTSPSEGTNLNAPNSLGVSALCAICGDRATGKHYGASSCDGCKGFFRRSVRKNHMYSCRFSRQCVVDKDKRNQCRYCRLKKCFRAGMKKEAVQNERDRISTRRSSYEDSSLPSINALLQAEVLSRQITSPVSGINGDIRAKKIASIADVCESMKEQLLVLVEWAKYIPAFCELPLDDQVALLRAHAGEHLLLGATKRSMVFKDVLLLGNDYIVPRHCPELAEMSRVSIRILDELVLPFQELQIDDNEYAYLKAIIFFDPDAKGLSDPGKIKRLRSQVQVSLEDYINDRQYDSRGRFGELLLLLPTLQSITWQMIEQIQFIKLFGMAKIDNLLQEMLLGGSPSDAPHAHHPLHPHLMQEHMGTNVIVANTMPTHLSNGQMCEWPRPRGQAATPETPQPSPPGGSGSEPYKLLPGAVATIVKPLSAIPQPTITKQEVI
FGF22 binding: binders of human FGF22 protein, primary screen, FGF22 synaptogenesis inhibitor project, biophysical, thermal shift, single point; Fibroblast growth factor 22 (Homo sapiens), Q9HCT0; 340,000 compounds, 1.5% hits; recombinant FGF22 thermal shift, SYPRO orange fluorescence; percent of sucrose octasulfate shift, DMSO zero; calls only at 9.99 µM;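 active = melting point raised past a set limit in the mean and every replicate; inconclusive = no clear call; three in four hits are not shown here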
Target sequence (Q9HCT0 whole entry, looked up): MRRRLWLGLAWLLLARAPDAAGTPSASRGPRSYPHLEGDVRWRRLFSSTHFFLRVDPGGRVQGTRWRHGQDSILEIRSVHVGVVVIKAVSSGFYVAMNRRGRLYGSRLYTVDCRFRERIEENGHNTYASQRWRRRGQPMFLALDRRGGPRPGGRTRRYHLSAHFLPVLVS
AF4-AF9 inh: inhibitors of AF4 peptide binding to AF9, primary screen, biochemical, AlphaScreen, biotin-AF4 peptide, FLAG-AF9, single point; inhibition, % at 10 µM; AID 651704, 2012; Protein AF-9 (Homo sapiens), P42568; 350,000 compounds, 0.47% hits;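 active = every replicate reaching a set inhibition limit, whatever the replicate mean, cut at about 25% in these data; inconclusive = mean inhibition reaches that limit but some replicates miss it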;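 also: 0% = plate neutral control median and 100% = total signal loss; the record names both 10 and 1 µM as test concentration; the first replicate is given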
Vif TR-FRET: inhibitors of Vif binding to APOBEC3G peptide, primary screen, biochemical, TR-FRET, GST-Vif 1-94, biotin-A3G peptide, dose response retest (AID 1117319) | TR-FRET GST-Vif / biotin-A3G peptide binding; higher % means a stronger effect; test concentration not given here; strong numbers were not always called active | inhibition, %, or IC50 in µM where a hit was titrated | 260,000 compounds, 0.57% hits;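 active = above the screen mean plus three standard deviations and confirmed in dose response; inconclusive = results disagree or hit not tested in dose response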;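 also: Vif residues 1-94 fused to GST binding biotinylated APOBEC3G peptide 110-148; 0% = full assay without inhibitor and 100% = GST in place of GST-Vif; retest series ran down from 100 µM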
UCH37 inh: inhibitors of human UCH37 deubiquitinase, primary screen, biochemical, Ub-AMC cleavage, fluorescence. Ubiquitin carboxyl-terminal hydrolase isozyme L5 (Homo sapiens), Q9Y5K5. purified proteasome/UCH37. inhibition, % (concentration not given with the values). 330,000 compounds, 0.33% hits. AID 588478, 2011;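 active = mean of two replicates above 20%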;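 also: 0% = compound-free wells with enzyme and 100% = wells lacking proteasome; stock transfer was 100 nL into about 20 µL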
Target sequence (Q9Y5K5 whole entry, looked up): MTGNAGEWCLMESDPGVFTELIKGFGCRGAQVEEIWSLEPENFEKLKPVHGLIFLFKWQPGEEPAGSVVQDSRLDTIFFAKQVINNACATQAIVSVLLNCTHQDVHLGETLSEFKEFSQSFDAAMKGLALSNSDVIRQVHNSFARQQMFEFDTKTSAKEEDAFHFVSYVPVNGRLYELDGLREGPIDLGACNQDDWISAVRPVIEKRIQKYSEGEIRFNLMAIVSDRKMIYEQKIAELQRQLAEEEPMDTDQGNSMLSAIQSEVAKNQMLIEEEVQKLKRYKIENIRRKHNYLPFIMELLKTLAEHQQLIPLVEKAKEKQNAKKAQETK
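Reagent: Ub-AMC substrate; assay system: Proteasome-associated human UCH37 deubiquitinase; controls: no-proteasome and no-compound wells; read-out: % inhibition of Ub-AMC cleavage fluorescence; timing: 30 min preincubation with enzyme, 25 min cleavage at room temperature; signal: AMC fluorescence from Ub-AMC cleavage, excitation 355 nm, emission 460 nm; buffer or medium: Tris-HCl pH 7.4 plus ovalbumin, ATP-MgCl2, DTT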
Starred values were filed as active, the others as inactive; i = inactive; ? = inconclusive; / = not tested or not shown; & = joins results of further samples.

SMILES	Ecoli growth	RanGTP-Impb inh	HNF4A DNA FP	FGF22 binding	AF4-AF9 inh	Vif TR-FRET	UCH37 inh
CC(=O)c1c(O)ccc2c(-c3ccccc3)cc(=O)oc12	0.71	-3.6	5.4	/	/	-3%	-27
O=C(Nc1ccccc1N1CCOCC1)c1cccs1	0.69	?	0.3	/	/	-10%	-0.9
O=C(Cn1cc2c(n1)CCCC2)NCCCN1CCCC1	0.75	7.0	10	i	0.0	-1%	3.1
Cc1ccc(-c2nn(-c3ccccc3)cc2CC(=S)N2CCOCC2)cc1	0.68	5.2	0.4	i	4.2	/	1.9
O=c1c2ccccc2nnn1CSc1nnc2sc3ccccc3n12	0.73	2.7	/	/	/	4%	0.4
Cc1cc(C)c(S(=O)(=O)N2CCCCC2)c(C)c1N(C)S(=O)(=O)c1ccccc1	0.67	2.2	1.4	/	/	-2%	4.0
C=CCOc1cccc(C2C(C(=O)c3ccco3)=C(O)C(=O)N2Cc2cccnc2)c1 (stereo unspecified)	0.64	0.7	0.7	i	2.1	/	10
Cc1ccc(Cl)cc1NC(=O)C1CCCN(c2cnccn2)C1 (stereo unspecified)	0.67	-0.9	1.2	i	2.1	/	-19
COc1ccc(NC(=O)c2ccccc2SC)cc1	0.66	2.4	-1.7	i	-1.2	-1%	4.3
O=C(NC(=S)Nc1ccc(CN2CCOCC2)cc1)c1cccc(F)c1	0.68	-4.9	1.3	i	2.8	/	1.3
Cc1ccc(-c2cc(C(=O)NCCCn3ccnc3)c3ccccc3n2)s1	0.73	0.2	0.7	i	3.5	-15%	i
COc1ccccc1C1C(C#N)=C(N)N(c2cccnc2)C2=C1C(=O)CC(C)(C)C2 (stereo unspecified)	0.7	-1.0	0.1	/	/	19%	4.4
O=C(NCC(c1ccco1)N1CCc2ccccc21)c1ccc([N+](=O)[O-])cc1 (stereo unspecified)	0.66	-4.1	-0.8	/	0.3	/	3.1
CC(C)(C)C(=O)NCCCc1ccccc1	0.7	-3.3	1.9	/	/	-6%	1.3
CCC(C)NC(=O)c1ccc(NC(=O)CC2SC(N3CCCC3)=NC2=O)cc1 (stereo unspecified)	0.6	/	0.6	i	-0.2	-9%	-1.1
CCc1cc2cccc(C)c2nc1SCC(=O)NNC(=O)c1ccco1	0.68	0.7	1.6	/	/	-10%	-0.6
COC(=O)Nc1ccc2c(c1)Nc1ccccc1CC2	0.69	-3.3	8.9	i	2.4	/	2.5
O=[N+]([O-])c1ccc(SNc2ccccc2)c([N+](=O)[O-])c1	/	/	-2.0	i	13	-1%	/
Cc1nc(SCC(=O)N2CCCC2=O)nc(C)c1C	0.67	/	1.0	i	-1.8	-9%	1.1
CC1=C(C(=O)OCC2CCCO2)C(c2ccc(C)o2)C2=C(CC(c3ccc(F)cc3)CC2=O)N1 (stereo unspecified)	/	-2.1	-0.6	/	/	9%	/
CCC[N+](CC#Cc1ccccc1)(CCC)CC(=O)c1ccc(Cl)cc1	0.66	4.4	0.6	i	-8.1	5%	4.3
C#CCSc1nccc(-c2nn(-c3ccc(C)cc3)ccc2=O)n1	0.69	-1.5	0.9	/	/	9%	-44
Cc1c(C(=O)c2ccc(Cl)c([N+](=O)[O-])c2)c2ccccn2c1CCC#N	0.72	0.7	-1.4	/	/	12%	6.1
O=C(NCc1ccc(OC(F)(F)F)cc1)C1CC(c2ccccc2[N+](=O)[O-])=NO1 (stereo unspecified)	/	0.7	1.0	i	-4.7	?	-0.6
COc1ccc(OC)c(-c2nnc3n2N=C(c2ccc(OC(F)F)c(OCC4CC4)c2)CS3)c1	/	/	-0.2	i	6.1	/	/
O=C(CC1C(=O)NCCN1Cc1c(F)cccc1Cl)NCCCn1cccn1 (stereo unspecified)	0.7	3.5	2.6	i	3.9	10%	2.1
O=C(CCC(=O)Nc1nnc(C2CCCCC2)s1)NCc1ccc(F)cc1	0.7	1.3	-3.3	i	0.9	/	0.6
Cc1cnc(NC(=O)C(C)N2C(=O)C3CC=CCC3C2=O)s1 (stereo unspecified)	0.64	4.4	-1.2	/	/	-12%	0.3
CN(C)S(=O)(=O)c1cccc(-c2nn(-c3ccccc3)cc2/C=C2\SC(=S)N(CC(=O)O)C2=O)c1	0.71	0.1	-2.4	/	5.9	11%	16
Cc1onc(-c2ccccc2Cl)c1C(=O)N1CCCCC1	0.64	0.6	-2.1	i	11	/	1.1
CCCCC(=O)N=c1sc2cc([N+](=O)[O-])ccc2n1C	0.71	5.2	4.0	i	-5.7	-14%	1.7
CCNC(=O)C1CCCN(C(=O)c2ccccc2F)CC1 (stereo unspecified)	/	/	-3.1	i	-2.1	/	/
CCOC(=O)c1c(C)c(C(=O)N2CCN(C(=O)c3ccco3)CC2)c(C)n1C	0.62	?	-4.3	i	6.2	0%	1.5
COc1ccccc1-n1c(SCC(=O)N2CCCC2)nnc1-c1ccccc1	0.66	?	1.6	i	-3.0	18%	2.9
CN1C=CC(=CC=C2C=CC(=O)C=C2)C=C1	0.67	-3.7	54*	i	0.5	?	-13
CCc1nn(CC(=O)NCCCN2CCN(CC)CC2)c(=O)c2cc3occc3n12	0.69	4.7	-0.8	i	0.3	-6%	-1.1
CC(C)c1ccc(NC(=S)NNC(=O)C2CC2)cc1	0.66	1.6	-1.5	i	0.0	-1%	1.5
CCOc1cc(/C=N/NC(=O)CN2CCCCC2)ccc1OCc1ccccc1	/	-2.4	4.5	/	/	5%	/
CCC(C)NC(=O)C1CCN(S(=O)(=O)N2CCOCC2)CC1 (stereo unspecified)	0.66	0.1	2.1	i	-1.2	-4%	-0.7
COCCn1c(N)c(Sc2ccc([N+](=O)[O-])cc2)c(=O)[nH]c1=O	0.69	-4.5	-0.9	i	-1.5	-11%	9.4
CCCOc1ccc(C(=O)OCC(=O)NCCc2ccc(OCC)c(OCC)c2)cc1OC	0.69	2.0	1.5	i	-1.7	/	1.3
CN1CCN(C(=O)c2cc3c(c(-c4cccc(Br)c4)n2)[C@H](CCO)N(S(=O)C(C)(C)C)C3)CC1 (stereo partly specified)	/	/	4.8	i	3.1	/	/
CC(C)(C)S(=O)(=O)N1C[C@@H]2CC/C=C\C/C=C\2[C@H]1CCO	0.71	/	-1.3	i	-1.2	-5%	15
Fc1ccccc1-n1cc(-c2ccccc2)[nH]c1=S	/	-3.0	6.2	i	-0.9	-4%	/
COc1ccccc1CNC(=O)CSc1ccsc1[N+](=O)[O-]	0.69	-2.0	-0.5	i	-2.6	0%	4.1
Cc1ccc(N2C(=O)CC(Sc3nc(-c4ccccc4)c4cc(Cl)ccc4n3)C2=O)c(C)c1 (stereo unspecified)	0.74	-0.1	0.3	/	/	/	-135
Cc1ccc(S(=O)(=O)N2CCC(C(=O)OCc3c(C)noc3C)CC2)cc1C	0.71	1.3	2.4	i	-0.7	-5%	-2.3
CCC1Sc2ccc(S(=O)(=O)N3CCN(c4ccccc4)CC3)cc2NC1=O (stereo unspecified)	0.71	4.0	1.6	i	1.8	-2%	2.4
CCn1cc(CNC(=O)c2ccc(C)s2)cn1	0.66	6.5	2.8	i	0.3	-3%	1.3
CC1CC(C)CN(S(=O)(=O)c2cc3c(cc2Cl)NC(=O)CO3)C1 (stereo unspecified)	0.8	-1.1	3.4	i	-1.5	/	2.1
CC1CCCN(C(=O)N2c3ccccc3Sc3ccccc32)C1 (stereo unspecified)	0.72	4.1	-0.1	/	/	6%	3.7
CCCCc1c(O)nc(SCC(=O)N2CCCCC2)n(-c2ccccc2C)c1=O	0.7	-1.9	-3.1	/	/	-9%	1.2
O=C(Nc1nnc(SCC(=O)N2CCCCC2)s1)c1c(F)cccc1F	0.7	3.9	5.0	i	11	/	2.0
COc1cc2c(C#N)c(N3CCOCC3)nc(N)c2c(N)n1	0.69	?	1.5	/	/	20%	-113
CCC(C)C(NC(=O)C1CCC(C)CC1)C(=O)Nc1cc(OC)ccc1OC (stereo unspecified)	0.74	-2.7	-0.6	/	/	-4%	4.1
Cc1ccc(CCNC(=O)C2CCC(CNc3c(N4CCCC4)c(=O)c3=O)CC2)cc1 (stereo unspecified)	0.77	?	-3.2	i	-2.7	-2%&2%	4.7
CCOc1ccc(NC(=O)CSc2nc3cc(C(=O)NCC4CCCO4)ccc3c(=O)n2CC2CCCO2)cc1 (stereo unspecified)	/	/	-1.8	i	3.7	0%	/
CCN(CC)c1ccc(NC(=O)c2c(OC)cccc2OC)c(C)c1	0.69	0.8	-2.6	/	/	?	4.3
CCc1cc(C(=O)NNC(=S)NC2CCCCC2)cs1	0.7	11	-0.1	i	0.4	-2%	3.3
Cc1ccc(NC(=O)CNC(=O)N2CC(=O)Nc3ccccc32)cc1F	0.6	-3.7	0.8	i	0.3	/	2.4

Next compounds follow:
SMILES	Ecoli growth	RanGTP-Impb inh	HNF4A DNA FP	FGF22 binding	AF4-AF9 inh	Vif TR-FRET	UCH37 inh
COc1cccc(C(C#N)N2CCOCC2)c1 (stereo unspecified)	0.7	-3.4	-3.9	/	/	-1%	5.3
Cc1ccc2nc(-c3ccc(N4C(=NC(=O)CCC(=O)O)SC5CS(=O)(=O)CC54)cc3)sc2c1 (stereo unspecified)	0.69	0.1	-13	/	/	9%	-46
CC1CC(=O)N(CC(=O)NCc2ccco2)c2ccccc2S1 (stereo unspecified)	0.7	-3.6	2.7	/	/	7%	4.1
O=C(CSc1nnc(-c2cccnc2)o1)Nc1ccccn1	0.72	-2.4	-1.5	/	/	27%	3.2
O=C(NC(c1ccccc1)c1ccccc1)C1CCCC1	0.67	-1.4	3.3	/	/	0%	2.6
Cc1nc(-c2nc(-c3c(C(=O)NNC(=O)Nc4ccccc4)noc3C)cs2)cs1	0.66	2.7	3.8	i	1.7	-1%	2.5
Cc1cc2nc(-c3ccc4c(c3)CCC4)ccn2n1	0.7	3.0	-2.2	i	-4.1	3%	-39
CCOC(=O)C1(C)CCCN(C(=O)c2cc(OC)c(OC)c(OC)c2)C1 (stereo unspecified)	/	/	-2.8	i	2.0	/	/
CN1/C(=C\C(=O)c2cccnc2)Sc2ccccc21	/	10	0.9	/	-2.8	2%	-0.2
CC(C)NC(=O)Nc1cccc2c1O[C@H](CN(C)S(=O)(=O)c1ccccc1)[C@@H](C)CN([C@H](C)CO)C2=O	/	/	1.1	i	-0.3	/	6.8

Part of the list above in order of length of the SMILES, ascending:
SMILES	Ecoli growth	RanGTP-Impb inh	HNF4A DNA FP	FGF22 binding	AF4-AF9 inh	Vif TR-FRET	UCH37 inh
O=C(Nc1ccccc1N1CCOCC1)c1cccs1	0.69	?	0.3	/	/	-10%	-0.9
O=C(NC(c1ccccc1)c1ccccc1)C1CCCC1	0.67	-1.4	3.3	/	/	0%	2.6
CC(C)c1ccc(NC(=S)NNC(=O)C2CC2)cc1	0.66	1.6	-1.5	i	0.0	-1%	1.5
Cc1onc(-c2ccccc2Cl)c1C(=O)N1CCCCC1	0.64	0.6	-2.1	i	11	/	1.1
C#CCSc1nccc(-c2nn(-c3ccc(C)cc3)ccc2=O)n1	0.69	-1.5	0.9	/	/	9%	-44

From PubChem BioAssay

An excerpt (hit frequency here may not be typical).
